High-throughput results from PubChem.
FXIa inh mix: factor XIa (human) inhibition, mixture screen; inhibition, % at 5 µM; P03951; 62,000 compounds, 0.19% hits; purified FXIa, fluorogenic substrate, pooled mixtures;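 further: each value is inhibition by a whole ten-compound pool holding the compound; 0% = enzyme with no mixture and 100% = wells lacking enzyme; strong numbers were not always called active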
Target sequence (P03951 19-387 limits assumed): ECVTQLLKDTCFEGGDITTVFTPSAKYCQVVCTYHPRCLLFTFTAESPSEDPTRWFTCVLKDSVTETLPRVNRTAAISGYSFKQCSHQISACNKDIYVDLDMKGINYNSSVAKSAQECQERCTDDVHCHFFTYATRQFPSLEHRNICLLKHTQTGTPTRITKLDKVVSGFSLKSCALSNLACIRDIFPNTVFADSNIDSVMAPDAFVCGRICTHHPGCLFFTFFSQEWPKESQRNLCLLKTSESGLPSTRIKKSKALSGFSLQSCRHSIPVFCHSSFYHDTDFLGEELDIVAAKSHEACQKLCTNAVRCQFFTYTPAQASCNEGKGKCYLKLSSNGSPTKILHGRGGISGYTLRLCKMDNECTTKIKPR
Target sequence (P03951 388-625 limits assumed): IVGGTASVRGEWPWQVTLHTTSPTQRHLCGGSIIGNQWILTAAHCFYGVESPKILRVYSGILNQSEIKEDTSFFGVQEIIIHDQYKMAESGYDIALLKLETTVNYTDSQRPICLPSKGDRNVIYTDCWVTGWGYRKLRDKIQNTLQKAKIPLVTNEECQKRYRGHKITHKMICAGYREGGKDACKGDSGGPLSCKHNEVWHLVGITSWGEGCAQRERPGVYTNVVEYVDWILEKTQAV
FXIIa mix inh: factor XIIa (human) inhibition, mixture screen | P00748 | purified FXIIa, fluorogenic substrate, pooled mixtures | inhibition, % at 5 µM | 62,000 compounds, 0.2% hits | AID 684;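 further: 0% = enzyme without compound and 100% = no enzyme blank; some results filed as inactive read as strong as hits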
C1s inh: blocks human complement C1s protease activity; 62,000 compounds, 0.16% hits; AID 538; purified C1s, fluorogenic AMC substrate, pooled mixtures; mean inhibition % of two 10-compound mixtures (active compounds read high), % at 5 µM (by protocol); P09871;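 active means inhibition above 20% in each of the two 10-compound mixture wells holding the compound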;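 further: 0% = enzyme wells lacking compound mixture and 100% = no-enzyme blank wells; some compounds called inactive have numbers as strong as hits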
PKA inh: blocks human protein kinase A activity; PKA Kemptide phosphorylation, Kinase-Glo ATP luminescence; inhibition, % at 6 µM; 65,000 compounds, 0.1% hits; AID 524;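 active means inhibition above the screen-wide mean inhibition plus 3 SD, cut at about 21% in these data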; further: many of its hits are not listed in these tables
CatG inh: blocks human cathepsin G enzyme activity. 62,000 compounds, 0.2% hits. purified enzyme, AMC-tetrapeptide fluorescence, pooled mixtures. inhibition, % at 5 µM (by protocol);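 active means inhibition above 20% in each of the two mixture wells holding the compound; inactive means inhibition of 20% or less in either well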;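 further: 0% = enzyme control without mixture and 100% = blank lacking enzyme; strong numbers were not always called active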
ROCK2 blocker: inhibitors of human Rho kinase 2; purified ROCK2, Kinase-Glo ATP depletion luminescence; inhibition, % at 6 µM; 60,000 compounds, 0.35% hits; O75116;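 active means inhibition above the screen-wide mean inhibition plus 3 SD, cut at about 18% in these data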;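 further: plate controls were DMSO wells for no effect and Y-27632 control wells after no-enzyme background subtraction for full effect; many of its hits are not listed in these tables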
CatS inh: blocks human cathepsin S protease activity | P25774 | recombinant cathepsin S, AMC dipeptide fluorescence, pooled mixtures | inhibition, %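 (tested at 5 µM per compound within 10-compound mixtures)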 | 62,000 compounds, 0.06% hits | AID 501; in the data active means inhibition above about 32%, passing the limit was not always enough;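 further: 0% = enzyme without compound and 100% = blank without enzyme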
Target sequence (P25774 115-331 limits assumed): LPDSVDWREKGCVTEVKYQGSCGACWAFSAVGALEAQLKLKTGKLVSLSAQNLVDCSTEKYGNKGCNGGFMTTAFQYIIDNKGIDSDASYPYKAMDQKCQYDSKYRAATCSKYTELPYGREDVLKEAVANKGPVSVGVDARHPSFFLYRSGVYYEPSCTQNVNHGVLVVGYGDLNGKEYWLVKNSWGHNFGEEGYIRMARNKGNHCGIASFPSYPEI
CatL block: inhibitors of human cathepsin L | P07711 | purified cathepsin L, fluorogenic substrate, fluorescence | inhibition, %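 (tested at 10 µM)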 | 58,000 compounds, 0.17% hits; in the data active means inhibition above about 45%;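 further: 0% = enzyme with no compound and 100% = no enzyme blank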
* hit, by the source's call; . = no result given. Unless noted, no stated cut-off is given here; in the data, active means inhibition above about 20% (passing the limit was not always enough); inactive means the rest.

Assay codes: A = FXIa inh mix; B = FXIIa mix inh; C = C1s inh; D = PKA inh; E = CatG inh; F = ROCK2 blocker; G = CatS inh; H = CatL block
> COc1cccc(C2=NOC(C(=O)NCc3ccco3)C2)c1 (stereo not given)
  A: 2; B: 2; C: -27; D: 8; E: -13; F: 4; G: -8; H: -2
> O=Nc1c2nc3ccccc3n(O)c-2c2ccccc12
  A: 7; B: 7; C: 3; D: 9; E: 6; F: 3; G: -4; H: 2
> COCCCNC(=O)c1ccc(Cn2c(=O)[nH]c3ccccc3c2=O)cc1
  A: 7; B: 3; C: -6; D: 8; E: -8; F: -3; G: 18; H: 9
> Cc1cc(C)n(-c2ccc(C(=O)Nc3ccccc3N3CCOCC3)cc2)n1
  A: 5; B: 0; C: -23; D: 7; E: -2; F: 6; G: -6; H: 3
> c1ccc(Cc2nc(-c3ccccn3)no2)cc1
  A: 0; B: -12; C: 9; D: 11; E: 0; F: -1; G: 17; H: 23
> O=C(CCNc1cccc(Cl)c1)c1ccco1
  A: 3; B: -2; C: -4; D: 1; E: -4; F: -6; G: -6; H: -6
> Fc1ccc(-c2cc3nc(-c4ccccc4)cc(N4CCN(CCN5CCOCC5)CC4)n3n2)cc1
  A: -2; B: 1; C: -9; D: -6; E: 10; F: -4; G: -7; H: -133
> O=C(Cc1ccc(Br)cc1)N1CCN(c2ccccc2)CC1
  A: -1; B: 8; C: 4; D: 9; E: 2; F: 6; G: 11; H: 12
> NC(=O)c1ccsc1NC(=O)c1ccco1
  A: 5; B: -20; C: -8; D: 6; E: -1; F: 0; G: 8; H: 4
> Cc1ccc(-c2c3c(=O)n(C)c(=O)n(C)c3c3nnc4ccccc4n23)cc1
  A: 6; B: 1; C: -3; D: -4; E: -3; F: 2; G: 13; H: .
> Cc1nnc2n1N=CC=C(C(C)(C)C)S2
  A: 1; B: -19; C: -2; D: 9; E: -3; F: 4; G: -8; H: 0
> c1ccc(C2C3=C(CCCC3)Nc3ncnn32)cc1 (stereo not given)
  A: 30; B: 2; C: -29; D: 7; E: -5; F: 4; G: 17; H: 10
> O=c1c2cccnc2[nH]c(=S)n1CCCN1CCN(c2ccc(F)cc2)CC1
  A: -1; B: 1; C: 3; D: 10; E: 1; F: 4; G: 7; H: 9
> CN(CCCC(=O)Nc1nccs1)S(=O)(=O)c1ccc(Cl)cc1
  A: 3; B: 12; C: 4; D: 6; E: 7; F: -1; G: 1; H: -5
> O=C(NCCc1ccccn1)c1n[nH]c(=O)c2ccccc12
  A: 1; B: -4; C: -33; D: 0; E: -11; F: 1; G: 9; H: 9
> COc1cccc(C2=NOC(C(=O)NC3CCCCC3)C2)c1 (stereo not given)
  A: -2; B: 4; C: -13; D: 6; E: 8; F: 3; G: -5; H: -2
> Cc1nc(NC(=O)CSc2ccccc2N)sc1C
  A: 12; B: 11; C: -4; D: 13; E: -1; F: 5; G: 8; H: -2
> COC(=O)c1sccc1NC(=O)c1csc(C)c1
  A: 10; B: 2; C: 0; D: 10; E: 14; F: 6; G: 12; H: 7
> COCC(=O)Nc1cc(C)c2c(=O)oc3ccccc3c2n1
  A: 16; B: 10; C: -4; D: 5; E: -1; F: -4; G: 9; H: 9
> O=C(Nc1nc(-c2cccs2)cs1)c1ccc(S(=O)(=O)N2CCCCC2)cc1
  A: 8; B: 4; C: 15; D: -2; E: 8; F: -5; G: -12; H: 14
> COc1cc(C)nc(Nc2nc(C)c(C(C)=O)s2)n1
  A: .; B: .; C: .; D: 2; E: .; F: 0; G: .; H: 4
> O=C(c1ccc2c(=O)n(Cc3ccco3)c(=S)[nH]c2c1)N1CCN(c2ccccc2)CC1
  A: 5; B: 20; C: 0; D: 4; E: 12; F: 3; G: 8; H: 0
> Cc1ccc(Nc2cc(-n3nc(C)cc3C)ncn2)c(C)c1
  A: 11; B: 3; C: 2; D: -3; E: 0; F: -1; G: -5; H: 4
> Cc1nc(SCCC(=O)O)c2ccccc2n1
  A: -2; B: -7; C: 16; D: 6; E: 15; F: 6; G: 2; H: -4
> COC(=O)c1ccccc1NC(=O)COc1ccccc1
  A: 3; B: 2; C: 6; D: -5; E: -1; F: -2; G: 5; H: 7

Ordered by the number under FXIIa mix inh (low to high): some entries from above.
| SMILES | FXIa inh mix | FXIIa mix inh | C1s inh | PKA inh | CatG inh | ROCK2 blocker | CatS inh | CatL block |
| --- | --- | --- | --- | --- | --- | --- | --- | --- |
| COc1cccc(C2=NOC(C(=O)NCc3ccco3)C2)c1 (stereo not given) | 2 | 2 | -27 | 8 | -13 | 4 | -8 | -2 |
| Cc1ccc(Nc2cc(-n3nc(C)cc3C)ncn2)c(C)c1 | 11 | 3 | 2 | -3 | 0 | -1 | -5 | 4 |
| Cc1nc(NC(=O)CSc2ccccc2N)sc1C | 12 | 11 | -4 | 13 | -1 | 5 | 8 | -2 |

The list continues.
Each structure is followed by: FXIa inh mix, FXIIa mix inh, C1s inh, PKA inh, CatG inh, ROCK2 blocker, CatS inh, CatL block
- CCC(C)NC(=O)c1n[nH]c(=O)c2ccccc12 (stereo not given)
→ 0, 7, -19, 12, 0, 4, 1, -8
- COc1ccc2nc(Nc3nc(C)c(C(C)=O)s3)sc2c1
→ 2, 13, -10, 9, 3, 4, 4, -18
- Oc1ccccc1-c1nc(NCCN2CCOCC2)c2ccccc2n1
→ ., ., ., 12, ., 11, ., .
- CCCCCOC(=O)c1ccccc1C(=O)O
→ 9, -15, 2, -5, 1, -1, 3, 9
- CCOC(=O)CC(=O)CSc1nnc2sc3ccccc3n12
→ ., ., ., -1, ., 3, ., 14
- O=C(CCNc1cc(Cl)cc(Cl)c1)c1ccco1
→ 0, 2, 5, 3, 10, 4, 10, 16
- CC(C)OCCCn1c(=S)[nH]c2ncccc2c1=O
→ 8, 3, -24, 8, 8, 6, 6, 10
- C=CCn1c(SCC(=O)NC(=O)NCc2ccco2)nc2sc(CC)cc2c1=O
→ -7, 3, -23, 8, 6, 3, 1, 18
- CC(C)(C)S(=O)(=O)c1ccc2nc3c(n2c1)CCCC3
→ 1, 13, -2, 13, 0, 4, 8, -11
- COc1cc2nc(C3CCC3)n(NC(=O)COc3ccccc3)c(=O)c2cc1OC
→ 5, 7, -8, -4, 0, -3, 15, 10
- CCCCCn1c(=S)[nH]c2ncccc2c1=O
→ 11, 0, -45, -1, -5, 0, 5, 21
- CCOC(=O)c1cnc(SCC(=O)Nc2ccc3c(c2)OCCO3)nc1N
→ -20, 0, -153, 0, -3, 2, -15, -2
- CCN(CCCn1c(=S)[nH]c2ncccc2c1=O)c1ccccc1
→ -3, 4, 1, 7, 7, 3, 7, 14
- COC(=O)c1ccccc1NC(=O)C1CC(c2ccccc2O)=NO1 (stereo not given)
→ 2, -17, 5, 7, 4, 2, 14, 1
- Cc1sc(NC(=O)c2cccs2)c(C(N)=O)c1C
→ 7, 11, 6, 12, 8, 5, 4, 0
- COC(=O)c1cc(Br)c(=O)n(CC(C)C)c1
→ 2, 4, -5, 6, -3, 2, -10, -1
- CCOc1ccc(N(CC(=O)NCc2ccccc2)S(C)(=O)=O)cc1
→ 3, 8, -30, 9, -9, 4, -7, -3
- Cc1ccc(-c2c3c(=O)n(C)c(=O)n(C)c3c3c(C)cc(C)nn23)cc1
→ 8, 4, 2, -3, 1, -1, 5, 2
- Cc1ccc(-c2c3c(=O)n(C)c(=O)n(C)c3cn2CCCN2CCOCC2)cc1
→ 1, 10, 12, 4, 5, 1, 21, 8
- N#CCSc1nnc2sc3ccccc3n12
→ 3, 3, 8, -3, 8, 1, -3, -3
- CC1(C)Cc2c(C#N)c(SCCOc3ccccc3)nc(N3CCOCC3)c2CO1
→ ., ., ., 0, ., -12, ., 9
- O=C1Nc2cccnc2Sc2ccccc21
→ -1, 8, -5, 0, 9, -6, 5, 6
- Cc1nnc2n1N=CC=C(c1ccccc1)S2
→ 0, -15, -2, 6, -2, 6, -4, 3
- COC(=O)c1ccsc1NC(=O)C1COc2ccccc2O1 (stereo not given)
→ 3, 0, 3, 1, 9, -1, -2, -5
- COc1cccc(C2=NOC(C(=O)NCC3CCCO3)C2)c1 (stereo not given)
→ 5, 1, -6, 9, -1, 5, 0, -3
- COc1cccc(C2=NOC(C(=O)Nc3cccc(C(C)=O)c3)C2)c1OC (stereo not given)
→ 3, 3, -4, 7, 7, 3, -1, 7
- CCN(CC)C(=O)C1CC(c2ccc(OC)cc2)=NO1 (stereo not given)
→ 6, 1, 4, 5, 7, 4, -3, 1
- COC(=O)c1cc(Br)c(=O)n(CCc2ccccc2)c1
→ 2, 2, -15, 9, 5, 7, -4, 6
- CCN1CCN(c2c(Cl)cccc2NC(=O)c2ccc(Br)o2)CC1
→ 11, 10, 18, 1, 9, 0, -4, -2
- COc1ccc(CNC(=O)C2CC(c3cccc(OC)c3)=NO2)cc1 (stereo not given)
→ 6, 2, 2, 2, 1, 0, -2, -1
- Oc1ccccc1C1=Nc2ccccc2N=C(c2ccco2)C1
→ 1, 5, 12, 10, 9, 5, 3, 12
- COc1ccc(C2=NOC(C(=O)NC(C)C)C2)cc1 (stereo not given)
→ 9, 1, 4, 3, 11, 0, -3, -6
- COCCCn1c(=S)[nH]c2ncccc2c1=O
→ 2, 4, 5, 12, 3, 5, 5, 9
- CCOCCCn1c(=S)[nH]c2cc(C(=O)N3CCOCC3)ccc2c1=O
→ 9, -15, -7, -2, 8, -3, 12, 0
- CCn1cc(C2=NOC(C(=O)Nc3ccccc3C(=O)OC)C2)c(C)n1 (stereo not given)
→ 5, 6, 9, 6, 5, 4, 9, 0
- NC(=O)c1ccsc1NC(=O)c1ccc(S(=O)(=O)N2CCCCC2)cc1
→ -34, 0, -114, 6, -31, 5, -13, 14

Quoted from the listing, 14 compounds:
Each structure is followed by: FXIa inh mix, FXIIa mix inh, C1s inh, PKA inh, CatG inh, ROCK2 blocker, CatS inh, CatL block
- N#CCSc1nnc2sc3ccccc3n12
→ 3, 3, 8, -3, 8, 1, -3, -3
- CC1(C)Cc2c(C#N)c(SCCOc3ccccc3)nc(N3CCOCC3)c2CO1
→ ., ., ., 0, ., -12, ., 9
- O=C1Nc2cccnc2Sc2ccccc21
→ -1, 8, -5, 0, 9, -6, 5, 6
- Cc1nnc2n1N=CC=C(c1ccccc1)S2
→ 0, -15, -2, 6, -2, 6, -4, 3
- COC(=O)c1ccsc1NC(=O)C1COc2ccccc2O1 (stereo not given)
→ 3, 0, 3, 1, 9, -1, -2, -5
- COc1cccc(C2=NOC(C(=O)NCC3CCCO3)C2)c1 (stereo not given)
→ 5, 1, -6, 9, -1, 5, 0, -3
- COc1cccc(C2=NOC(C(=O)Nc3cccc(C(C)=O)c3)C2)c1OC (stereo not given)
→ 3, 3, -4, 7, 7, 3, -1, 7
- CCN(CC)C(=O)C1CC(c2ccc(OC)cc2)=NO1 (stereo not given)
→ 6, 1, 4, 5, 7, 4, -3, 1
- COC(=O)c1cc(Br)c(=O)n(CCc2ccccc2)c1
→ 2, 2, -15, 9, 5, 7, -4, 6
- CCN1CCN(c2c(Cl)cccc2NC(=O)c2ccc(Br)o2)CC1
→ 11, 10, 18, 1, 9, 0, -4, -2
- COc1ccc(CNC(=O)C2CC(c3cccc(OC)c3)=NO2)cc1 (stereo not given)
→ 6, 2, 2, 2, 1, 0, -2, -1
- Oc1ccccc1C1=Nc2ccccc2N=C(c2ccco2)C1
→ 1, 5, 12, 10, 9, 5, 3, 12
- COc1ccc(C2=NOC(C(=O)NC(C)C)C2)cc1 (stereo not given)
→ 9, 1, 4, 3, 11, 0, -3, -6
- COCCCn1c(=S)[nH]c2ncccc2c1=O
→ 2, 4, 5, 12, 3, 5, 5, 9

The list is partial; count on the stated rates, not on these rows.
